# Screening results (PubChem BioAssay)
# Mtb bLac sens: beta-lactam sensitization of Mtb H37Rv; 330,000 compounds, 0.27% hits; M. tuberculosis H37Rv growth with meropenem, percent inhibition; hits of this screen are not shown here; inhibition, % at 25 µM;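 active = about 74% or more and at least 40 points above the plate without the antibiotic, then above 30% in a dose series; inconclusive = first-round hits that could not be retested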;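 also: growth measured after seven days incubation then overnight dye step; 0% = bacteria only wells and 100% = bacteria with antibiotic; twin plates without the antibiotic show which effects depend on it; some results filed as inactive read as strong as hits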
# RecA intein inh: blocks M. tuberculosis RecA intein splicing | P9WHJ3 | cell-free RecA intein splicing, fluorescence | inhibition, %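 (about 9 µM by stock and volumes)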 | 290,000 compounds, 0.75% hits | AID 2221; in the data active = inhibition above about 30%; inconclusive = no clear call, values can overlap the other calls;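 also: 0% = vehicle wells and 100% = reference inhibitor control wells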
# Target sequence (P9WHJ3 whole entry, looked up): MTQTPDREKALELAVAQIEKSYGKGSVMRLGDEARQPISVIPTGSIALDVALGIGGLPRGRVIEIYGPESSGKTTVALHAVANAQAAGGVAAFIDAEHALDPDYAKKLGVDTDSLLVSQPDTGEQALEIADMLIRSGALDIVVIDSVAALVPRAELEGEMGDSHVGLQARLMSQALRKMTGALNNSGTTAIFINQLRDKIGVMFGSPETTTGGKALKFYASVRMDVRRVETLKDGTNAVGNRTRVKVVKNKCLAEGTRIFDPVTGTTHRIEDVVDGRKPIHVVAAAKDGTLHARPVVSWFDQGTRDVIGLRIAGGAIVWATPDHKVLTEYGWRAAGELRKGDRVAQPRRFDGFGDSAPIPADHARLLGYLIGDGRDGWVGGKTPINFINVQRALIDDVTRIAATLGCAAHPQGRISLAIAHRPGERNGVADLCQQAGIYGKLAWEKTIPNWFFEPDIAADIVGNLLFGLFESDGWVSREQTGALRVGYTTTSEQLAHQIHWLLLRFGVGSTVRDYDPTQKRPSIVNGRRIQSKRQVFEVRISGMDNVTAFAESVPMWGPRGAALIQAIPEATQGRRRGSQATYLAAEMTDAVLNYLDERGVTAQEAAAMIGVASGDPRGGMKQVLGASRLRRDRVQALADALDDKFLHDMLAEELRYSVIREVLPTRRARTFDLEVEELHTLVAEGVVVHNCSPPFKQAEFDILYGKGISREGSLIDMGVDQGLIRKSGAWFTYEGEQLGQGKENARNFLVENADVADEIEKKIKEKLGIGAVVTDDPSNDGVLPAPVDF
# Arbovirus anti: antivirals against arbovirus infection | AID 1251 | arbovirus infection cell-based antiviral screen | inhibition, % at 10 µM | 200,000 compounds, 0.37% hits;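 active = inhibition from about 30%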;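 also: bluetongue infection of BSR cells; cell survival read as ATP light after 72 h; 0% = infected wells without compound and 100% = uninfected wells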
# YopH PTP inh: blocks Yersinia enterocolitica YopH tyrosine phosphatase. fluorescence Ex485/Em525. inhibition, %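 (about 10 µM by stock and volumes)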. 140,000 compounds, 0.16% hits. AID 898;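 active = inhibition of 50% or more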;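 also: controls were vehicle for no effect and minimum signal wells for full effect; inactives centre near -20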
# Mtb H37Rv: M. tuberculosis H37Rv growth inhibitors, H37Rv strain (AID 1626) | inhibition, % at 10 µM, or IC50 in µM where a hit was titrated | M. tuberculosis H37Rv growth inhibition; higher % means a stronger effect | 220,000 compounds, 0.95% hits;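 active = confirmed in a dose series; inconclusive = inhibition above 80% but not taken into the dose series; inactive = below 80% or under 30% at every dose of the series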;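 also: bacteria incubated seven days before Alamar blue readout; 0% = bacteria only wells and 100% = bacteria with antibiotic wells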
# Arbovirus anti repeat: second read-out of Arbovirus anti, no call of its own (marks repeat the call); inhibition, %; measured here: 10K subset replicate screen; many hits read low in the repeat;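 first of two repeat runs on a subset; 0% = infected and 100% = uninfected wells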
# * = called active by the depositor; ? = inconclusive; / = no result given. A portion of the library (hit frequency here may not be typical).
SMILES,Mtb bLac sens,RecA intein inh,Arbovirus anti,YopH PTP inh,Mtb H37Rv,others
CCOc1ccc2c(O)csc2c1,7,-2.6,2,-38,-14%,
CN(Cc1ccccc1)c1nc2c(c(=O)[nH]c(=O)n2C)n1Cc1ccccc1,12,0.5,4,-56,-22%,
Cc1c(CC(=O)NCCC(=O)O)c(=O)oc2cc3occ(-c4ccccc4)c3cc12,-6,1.4,/,/,/,
Cc1cc2c(cc1C)-c1nnnn1C(C)(C)C2,-1,-1.4,6,-10,-3%,
O=C(CSc1nnc(-c2ccc(C(F)(F)F)cn2)s1)c1ccc(Cl)cc1,7,-0.4,/,/,2%,
COC(=O)CNC(=O)CCCCC(=O)NCC(=O)OC,2,-1.3,2,5,-9%,
COc1ccc(C)cc1NC(=O)CCN1CCN(c2ccccc2F)CC1,-5,0.7,/,/,/,
CCOC(=O)C(C)Sc1nc2c(cnn2-c2ccc(F)cc2)c(=O)[nH]1 (stereo unspecified),0,0.2,/,/,/,
O=C(/C=C/c1ccccc1[N+](=O)[O-])NCc1cccnc1,-2,0.8,-5,-22,-18%,
N#C/C(=C\c1c(Oc2ccccc2Cl)nc2ccccn2c1=O)C(=O)NC1CCS(=O)(=O)C1 (stereo unspecified),5,-217,/,/,/,
CN1OC(COC(=O)c2ccc(Cl)cc2Cl)CC1c1ccccc1 (stereo unspecified),99,16,4,-24,20%,
CCN1C(=O)/C(=C\N(C)C)NC1=S,0,-0.2,-7,-33,5%,
C[n+]1cccc(/C=N/NC(=O)CC23CC4CC(CC(C4)C2)C3)c1,-4,2.9,/,/,/,
COCCc1nc2ccc(C(=O)N(C)Cc3cccc(-n4nc(C)cc4C)c3)cc2o1,0,-0.3,/,/,/,
COc1ccc(OC)c(N2C(=O)CC(Cc3ccc(C)cc3)C2=O)c1 (stereo unspecified),8,-0.2,-6,8,5%,
c1coc(CNc2ncnc3[nH]ncc23)c1,4,-1.4,/,/,-4%,
Cc1cc(OCCSc2nnc(-c3cccs3)n2C)ccc1Cl,-5,3.9,8,-25,0%,
CC1(C)CC(=O)c2cc(OCC(=O)NCCCN3CCN(c4ccccc4F)CC3)ccc2O1,-8,-2.6,5,-88,-3%,
CN(CCO)S(=O)(=O)c1ccc2c(c1)C(=NO)c1cc(S(=O)(=O)N(C)CCO)ccc1-2,22,/,-1,/,-2%,
Cc1ccc(-c2cc(N)n[nH]2)cc1,1,7.5,9,-12,-5%,
C=CCOC(=O)Nc1c(C(=O)OC)[nH]c2ccc(Cl)cc12,2,2.7,-17,-30,0%,
Cc1[nH]nc(-c2ccc(O)c(C)c2O)c1Oc1ccccc1,-6,13,9,-2,6%,
O=C(C(=O)N1CCN(C(=O)c2ccco2)CC1)c1c[nH]c2ccccc12,6,-0.5,9,/,-1%,
FC(F)(F)c1cc(Cl)c2nc(-c3ccccc3)cn2c1,16,1.3,-2,-20,4%,
O=C(N/N=C/c1ccc(Cl)cc1)c1sccc1OCc1ccc(F)cc1,7,5.4,-17,-37,-3%,
O=C1COc2ccc(C(=O)CSc3nnc(Cc4cccs4)n3-c3ccccc3)cc2N1,-7,4.3,2,-18,-2%,
COc1ccc(C(=O)OCC(=O)N(C)C2CCS(=O)(=O)C2)cc1S(=O)(=O)N1CCCc2ccccc21 (stereo unspecified),-6,0.8,5,/,2%,
CCC1CCCCN1C1Sc2ccc(C(=O)OC)cc2NC1=O (stereo unspecified),-13,-4.9,0,-40,0%,
CCCCNC(=O)CCn1c(=S)[nH]c2cc3c(cc2c1=O)OCO3,-5,0.1,-4,-7,-7%,
O=c1[nH]c2ccc(S(=O)(=O)N3CCCC3)cc2[nH]1,9,5.2,/,/,/,

# Grouped by structure: the entries above with an aryl thioether with sulfur outside any ring.
SMILES,Mtb bLac sens,RecA intein inh,Arbovirus anti,YopH PTP inh,Mtb H37Rv,others
O=C(CSc1nnc(-c2ccc(C(F)(F)F)cn2)s1)c1ccc(Cl)cc1,7,-0.4,/,/,2%,
CCOC(=O)C(C)Sc1nc2c(cnn2-c2ccc(F)cc2)c(=O)[nH]1 (stereo unspecified),0,0.2,/,/,/,
Cc1cc(OCCSc2nnc(-c3cccs3)n2C)ccc1Cl,-5,3.9,8,-25,0%,
O=C1COc2ccc(C(=O)CSc3nnc(Cc4cccs4)n3-c3ccccc3)cc2N1,-7,4.3,2,-18,-2%,

# The listing picks up; the 4 compounds before the break are reprinted first.
SMILES,Mtb bLac sens,RecA intein inh,Arbovirus anti,YopH PTP inh,Mtb H37Rv,others
COc1ccc(C(=O)OCC(=O)N(C)C2CCS(=O)(=O)C2)cc1S(=O)(=O)N1CCCc2ccccc21 (stereo unspecified),-6,0.8,5,/,2%,
CCC1CCCCN1C1Sc2ccc(C(=O)OC)cc2NC1=O (stereo unspecified),-13,-4.9,0,-40,0%,
CCCCNC(=O)CCn1c(=S)[nH]c2cc3c(cc2c1=O)OCO3,-5,0.1,-4,-7,-7%,
O=c1[nH]c2ccc(S(=O)(=O)N3CCCC3)cc2[nH]1,9,5.2,/,/,/,
C/C(=N/NC(=O)CNC(=O)c1cccs1)c1ccco1,-12,-1.7,/,/,-10%,
CC(=O)N1N=C(c2ccc(C)cc2)OC1c1ccc(C(C)C)cc1 (stereo unspecified),1,-0.1,-10,-7,-8%,
Cc1ccc(O)c(NC(=O)c2cccc(S(=O)(=O)N3CCCCC3)c2)c1,0,9.2,3,20,5%,
O=C1NCCSC1c1ccccc1 (stereo unspecified),-6,-0.7,/,/,/,
COCCn1nnnc1C(c1ccccc1OC)N1CCN(c2ccccc2F)CC1 (stereo unspecified),-10,1.2,-1,-42,-4%,
COc1ccc(C2C(C#N)=C(N)Oc3n[nH]c(C)c32)cc1CSc1ccccn1 (stereo unspecified),-4,81*,-4,-26,8%,
Cc1cc(N2CCCC2)nc2ccccc12,-2,-1.9,12,/,14%,
Cc1ccc(S(=O)(=O)n2nc(C)c(S(=O)(=O)N3CCOCC3)c2C)cc1,-5,-0.2,/,/,/,
CCCCOP(=O)(c1ccc(N(C)C)cc1)C(O)c1cccnc1 (stereo unspecified),10,-1.3,-2,14,-8%,
CCOC(=O)c1c(NC(=O)COC(=O)c2ccc(Cl)nc2)sc(C(=O)N(C)C)c1C,3,-4.6,/,/,/,
Cc1cccc(C)c1N1CCN(c2nc(N(C)C)oc(=O)c2C#N)CC1,2,1.8,0,-29,-3%,
CCOc1ccccc1N1CCN(CC(=O)c2c(N)n(C)c(=O)n(C)c2=O)CC1,2,-0.1,5,/,2%,
CCCCCCCCCCCCCCCCn1cc[n+](CC(C)=O)c1,/,/,-32,/,?,
Cc1cnc(C(=O)Nc2ccc(S(=O)(=O)NCC(C)C)cc2)cn1,-2,1.5,5,/,-6%,
COC(=O)c1sccc1NC(=O)c1c(-c2ccccc2)noc1C,12,-1.9,1,-26,-1%,
CCC(c1nnc(SCC(=O)N2CC3(C)CC2CC(C)(C)C3)o1)N(C)C (stereo unspecified),-4,1.3,0,-37,-9%,
O=C(c1ccc2ccccc2c1)C1CCCN(C(=O)CN2C(=O)CSC2=O)C1 (stereo unspecified),-3,-0.4,6,/,2%,
CC(=O)n1c2ccccc2c2c1c1ccccc1n2C,30,2.3,7,-5,6%,Arbovirus anti repeat=1
OCCCCCNc1ncnc2ccccc12,-8,1.7,11,39,0%,
Cc1c(NC(=O)C(C)OC(=O)c2ccc(Br)o2)c(=O)n(-c2ccccc2)n1C (stereo unspecified),-11,-2.3,10,/,0%,
COc1cc(NC(=O)c2ccc(C)c([N+](=O)[O-])c2)ccc1NC(=O)c1ccco1,2,0.8,-6,/,1%,
COc1ccc(S(=O)(=O)Cc2ccc(C(=O)NCc3ccco3)o2)cc1,-6,1.9,11,-43,-13%,Arbovirus anti repeat=4
O=c1[nH]c(=S)n(-c2cccc(Cl)c2)c(O)c1C=NCCN1CCNCC1,2,0.1,/,/,/,
Cc1cc(NC(=O)CNC(=O)C2CCCCC2)no1,7,/,-3,0,-8%,
Fc1ccccc1Nc1ncnc2c1nnn2Cc1ccccc1,-2,1.9,/,/,/,
COc1ccccc1CNC(=O)C1CCCN(c2cnccn2)C1 (stereo unspecified),2,0.3,/,/,/,
COc1ccc(-c2cc(-c3ccccc3)n[nH]2)c(O)c1,40,15,16,/,5%,
Cc1ccc(C)c(NC(=O)C2CCCN(S(=O)(=O)c3c(C)noc3/C=C/N(C)C)C2)c1 (stereo unspecified),-4,-2.6,/,/,/,
Cc1noc2ncc(C(=O)c3cc(F)ccc3O)cc12,-18,2.5,2,-6,3%,
CCCCN1C(=S)SC(C)(C)C1/[N+]([O-])=C/c1ccc(S(=O)(=O)NC)cc1 (stereo unspecified),-2,-3.7,/,/,1%,
O=C(CSc1ncn[nH]1)N1N=C(c2ccc(Cl)cc2)CC1c1ccco1 (stereo unspecified),-4,/,-2,/,1%,
CSc1nc(Oc2ccc(=O)[nH]n2)nc(N(C)C)n1,-11,0.2,-2,-30,2%,
CN=C1SC(CC(=O)Nc2c(C)cccc2C)C(=O)N1/N=C/c1cccs1 (stereo unspecified),6,-0.2,-11,-13,-5%,
O=C(CN1C(=O)NC2(CCCCCC2)C1=O)c1ccc(OC(F)F)cc1OC(F)F,7,-0.9,/,/,/,
COC(=O)c1[nH]c2ccccc2c1NC(=O)C(C)N1CCN(C(=O)c2ccco2)CC1 (stereo unspecified),-6,3.2,4,-42,-6%,
N/C(=N\OC(=O)c1cccc2ccccc12)c1ccncc1,-1,2.7,/,/,-5%,
CC(=O)Nc1cccc(/C(C)=N/NS(=O)(=O)c2ccccc2)c1,0,-1.4,-5,/,1%,
CCC(=O)N1CCN(c2ccc(NC(=O)c3ccc(C#N)cc3F)cc2Cl)CC1,-1,-0.2,4,/,0%,
Cc1cccc(N2CCN(C(=O)c3cccc(N4C(=O)C5C6C=CC(C6)C5C4=O)c3)CC2)c1C (stereo unspecified),1,-1.1,/,/,/,
Cc1ccc(N/C=C/C(=O)c2ccco2)c(O)c1,10,-0.9,/,/,-2%,
COc1ccc(-c2cc(C(F)(F)F)n3nc(C(=O)Nc4cc(C)on4)cc3n2)cc1OC,0,-56,9,-28,/,
O=C(NC1CCCCC1)c1cccc(OCc2ccccc2)c1,?,3.4,/,/,/,
CC(C)(C)n1nc2c(c1NC(=O)c1cc(Cl)ccc1[N+](=O)[O-])CS(=O)(=O)C2,1,-0.4,/,/,/,
COCCNC(=S)N1CCN(c2nc3ccccc3s2)CC1,-2,0.7,0,/,-1%,
COc1cc(CCC(=O)OCC(=O)Nc2ccc(F)c(F)c2)cc(OC)c1OC,4,-4.6,/,/,/,
O=C(COC(=O)/C=C/c1cccc(C(F)(F)F)c1)NCc1ccc(F)cc1,2,-1.3,-3,-22,3%,
CC(C)CCN(CCC(C)C)C/C(O)=C(\C#N)c1nc(-c2ccccc2)cs1,4,-0.6,8,-17,-8%,
Nc1nonc1-n1nnc(C(=O)O)c1-c1cccs1,6,1.5,12,-50,-5%,
CN(C(=O)c1ccncc1)c1nnc(-c2cccnc2)s1,-9,1.3,5,5,/,
O=C(Nc1nccs1)C(c1ccccc1)N1CCCC1 (stereo unspecified),-1,1.1,7,/,10%,

# Overlap with the part before: 4 entries, then new ones.
SMILES,Mtb bLac sens,RecA intein inh,Arbovirus anti,YopH PTP inh,Mtb H37Rv,others
CC(C)CCN(CCC(C)C)C/C(O)=C(\C#N)c1nc(-c2ccccc2)cs1,4,-0.6,8,-17,-8%,
Nc1nonc1-n1nnc(C(=O)O)c1-c1cccs1,6,1.5,12,-50,-5%,
CN(C(=O)c1ccncc1)c1nnc(-c2cccnc2)s1,-9,1.3,5,5,/,
O=C(Nc1nccs1)C(c1ccccc1)N1CCCC1 (stereo unspecified),-1,1.1,7,/,10%,
C/C(=N/NC(=O)c1ccncc1)c1ccc(NC(=O)c2ccc(Cl)cc2Cl)cc1,99,-0.5,/,/,/,
CC(=O)Nc1ccc(OCC(O)CN2CCN(c3ccc(F)cc3)CC2)cc1 (stereo unspecified),-3,-2.4,/,/,/,
Cc1ccn2cc(-c3ccc(Br)cc3)nc2c1,32,1.0,/,/,11%,
COc1ccc(OCC(=O)Nc2ccccc2C(=O)N2CCOCC2)cc1,-10,-1.3,3,/,6%,
CC1CC(C)CN(C(=O)COC(=O)Cc2c[nH]c3ccccc23)C1 (stereo unspecified),0,1.6,/,/,/,

# Looked up by structure from the list above:
SMILES,Mtb bLac sens,RecA intein inh,Arbovirus anti,YopH PTP inh,Mtb H37Rv,others
COc1ccc(OCC(=O)Nc2ccccc2C(=O)N2CCOCC2)cc1,-10,-1.3,3,/,6%,
Cc1ccn2cc(-c3ccc(Br)cc3)nc2c1,32,1.0,/,/,11%,
CC(=O)Nc1ccc(OCC(O)CN2CCN(c3ccc(F)cc3)CC2)cc1 (stereo unspecified),-3,-2.4,/,/,/,
